TAR Tat displ: TAR RNA-Tat peptide displacers, HIV-1, primary screen, biochemical, FRET, FAM/TAMRA-labeled Tat; HIV-1 TAR RNA, Tat peptide displacement FRET; hits give high values; z-score (concentration not given with the values); hit rate 0.6% among 100,000;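 note: score is relative to mean and SD of negative controls; some compounds called inactive have numbers as strong as hits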
CDC25B-CDK2 inh: primary biochemical HTRF screen for blockers of M-phase inducer phosphatase 2 binding to CDK2/cyclin A; HTRF CDC25B-CDK2/CyclinA binding, anti-His/anti-Flag; hits give high values; z-score (test concentration not listed); hit rate 0.72% among 94,000; AID 1259370, 2018;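 note: score is relative to mean and SD of negative controls; strong numbers were not always called active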
An asterisk follows results filed as active; . = not tested or not shown.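 Rule for the calls: active = z-score from 3 up in half or more of its runs; inactive = the rest.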

SMILES | TAR Tat displ | CDC25B-CDK2 inh
COc1ccc(Cl)cc1C(=O)Nc1nnc2n1CCCS2 | 0.69 | .
COc1ccc(C)cc1N1CC(O)=C(c2nc3ccc(C)cc3[nH]2)C1=N | 2 | -1.4
O=C(CSc1nc2ccsc2c(=O)n1-c1ccc(F)cc1)N1CCCC1 | . | 0.44
Cc1nonc1NC(=O)N1CCOCC1 | 1.3 | -1.4
COC(=O)C1C(=O)C2=C(CC1C)NC(C)=C(C(=O)OC(C)C)C2c1cccc(F)c1 (stereo not drawn) | -0.34 | -0.76
O=C(CCc1nc2cccnc2n1-c1ccccc1)N1CCc2ccccc2C1 | 2.3 | -1.7
O=C(N/N=C/c1ccccc1O)c1ccc([N+](=O)[O-])o1 | . | 0.49
CC(=O)O[C@H]1C[C@@H]2CC[C@@H]3[C@H](CC[C@@]4(C)[C@H]3C[C@H]([N+]3(C)CCCCC3)[C@@H]4OC(C)=O)[C@@]2(C)C[C@@H]1[N+]1(C)CCCCC1 | . | -1.1
CCCCN1CC(c2nc3ccccc3n2CCCOc2ccc(OC)cc2)CC1=O (stereo not drawn) | 1.4 | -0.58
Cc1cc2c3c([nH]c2cc1S(=O)(=O)Nc1cccnc1)CCCC3=O | 7.6* | .
Cc1nn(-c2ccc(N3CCOCC3)nn2)c(C)c1CCC(=O)NC1CCCC1 | -1.1 | .
Cc1n[nH]c(C)c1CCCCOc1ccc(C(C)(C)C)cc1 | 0.02 | -0.35
O=C(Nc1ccc(F)cc1F)C1CCCN1S(=O)(=O)c1cccc2cccnc12 (stereo not drawn) | 0.07 | -1
COc1ccc(C2=NN(S(C)(=O)=O)C(c3cn(-c4ccccc4)nc3-c3cccs3)C2)cc1 (stereo not drawn) | -1.5 | -3.4
CSc1sc(NC(=O)Nc2cccc(C(F)(F)F)c2)cc1C#N | . | -2.8
COc1ccc(-c2coc3cc(OCc4ccc(Br)cc4)cc(O)c3c2=O)cc1OC | -0.9 | -0.86
COc1cc(S(=O)(=O)Nc2ccc3c(cnn3C)c2)ccc1-n1cnnn1 | 1.9 | 0.58
Clc1cccc(CN2CCN(CC3CC=CCC3)CC2)c1 (stereo not drawn) | 0.14 | -1.8
CC(C)NS(=O)(=O)c1ccccc1I | . | -1.9
CCOc1cc(C)c(Cl)cc1S(=O)(=O)n1ccnc1C(C)C | 0.1 | -0.2
CCCCc1nnc(SCc2cc(=O)c3c(C)cc(C)cc3[nH]2)n1C | -0.35 | .
COc1ccc(Cl)cc1S(=O)(=O)NCc1nc2nc(C)cc(C)n2n1 | 0.84 | 0.95
NS(=O)(=O)c1ccc(Nc2ccc3cc(S(=O)(=O)N4CCCCC4)ccc3n2)cc1 | 1.4 | .
COc1ccc(S(=O)(=O)N2CCN(c3cc(N4CCCC4)nc(C)n3)CC2)c(C)c1C | -0.44 | -1.2
Cc1ccc(-n2ncc3c(N(CCO)Cc4ccccc4)ncnc32)cc1Cl | 0.55 | .
Cc1ccc(OCCOc2ccc(Cl)cc2/C=c2\sc3nc4ccccc4n3c2=O)cc1 | . | -2
COc1ccc(OC)c(C2Nc3ccccc3NC3=C2C(=O)CC(c2ccc(OC)c(OC)c2)C3)c1 (stereo not drawn) | -6.2 | -1.7
O=C1C[C@@H](c2ccc(O)c(O)c2)Oc2c1ccc(O[C@@H]1O[C@H](CO)[C@@H](O)[C@H](O)[C@H]1O)c2O | 17* | .
O=S1(=O)N=C(c2ccccc2)Nc2ccc(S(=O)(=O)N3CCOCC3)cc21 | 0.11 | .
Cc1nc(C(F)(F)F)ccc1C(=O)Nc1ccccc1F | . | -0.52
COc1ccccc1N1CCN(c2nc3ccccc3n3c(C)nnc23)CC1 | . | -1.6
CCCCSc1nnc(SCC(N)=O)s1 | 0.96 | -2.8
CCc1cc2c3c([nH]c2cc1S(=O)(=O)N1CCN(C2CCCC2)CC1)CCCC3=O | 1.8 | .
CCc1ncc(C(O)(c2ccccc2)c2cc(C)ccc2C)n1C (stereo not drawn) | -1.5 | -0.18
COC(=O)C1=NN(c2ccccc2)C2(S1)SC(C(=O)OC)=C(C)N2C (stereo not drawn) | 2.1 | -0.82
O=C1OC(c2ccc(Cl)cc2)c2ccccc21 (stereo not drawn) | -0.3 | -2.1
O=c1cc(-n2ccc(C(F)(F)F)n2)oc2ccccc12 | . | 0.34
CNC(=S)NNC(=O)c1cccs1 | . | 2
N/C(CN1CCCCC1)=N\O | . | -1.1
C=CCN1C(=O)C2(/C(=C(/O)c3ccc(F)cc3)C(=O)C(=O)N2CC2CCCO2)c2ccccc21 (stereo not drawn) | . | -0.54
Cc1ccc2oc(SCC(N)=O)nc2n1 | 0.27 | .
CCCNC(=O)c1oc2ccc3c(c2c1C)C(=O)CC1(CCCC1)O3 | 0.31 | 2.9
CC(CCc1ccco1)NC(=O)Cn1ncc2c(=O)oc3ccccc3c21 (stereo not drawn) | 0.68 | 2
COc1ccc(-n2c(=O)c3c(c4cc(OC)ccc4n3C)n(C)c2=O)cc1 | 1.2 | .
O=C(Nc1nnc(S(=O)(=O)N2CCc3ccccc32)s1)c1ccccc1Cl | 0.82 | -0.87
COc1ccc(-n2ccn(CC(=O)Nc3ccc(OC)cc3OC)c2=O)cc1 | 0.49 | .
Nc1ccc2nc(SCc3ccc(Cl)cc3)sc2c1 | 1 | -1.9
CCOC(=O)c1sc(=S)n(-c2ccccc2CC)c1N | 1.6 | .
Cn1c(C2CC(=O)N(c3ccccc3)C2)nc2ccccc21 (stereo not drawn) | -0.59 | -0.79
Cc1cc(=O)n2nc(N3CCC(C(=O)N4CCOCC4)CC3)sc2n1 | 1.2 | 0.85
Cc1ccc(C)c(CN2CCCN(C(=O)c3sc4nc5n(c(=O)c4c3C)CCCC5)C2)c1 | 1.9 | .
CCN1CCN(c2nnc(-n3cccc3CNc3cc(OC)ccc3OC)s2)CC1 | 5.7 | .
Cc1nn(-c2ccccc2)cc1-c1noc(C(=O)NC2CCCC2)n1 | -0.49 | .
CC(C)(C)c1csc(CS(=O)(=O)c2ccccn2)n1 | . | -1.6
Cc1cc(C)nc(Nc2n[nH]c(-c3cccnc3)n2)n1 | 1.1 | 0.2
O=C(CSCc1nc2cccnc2n1C1CCCCC1)Nc1ccc(F)cc1 | 0.33 | .
CCCN1C(C(=O)c2ccccc2)=C(OC(=O)c2ccccc2)c2ccccc2S1(=O)=O | 0.89 | 1.6
O=C(CC1SC(=O)NC1=O)Nc1cc(Cl)ccc1O (stereo not drawn) | . | -2.2
N#CCCN(CCC#N)C(=O)c1ccc(Cl)cc1 | . | -0.48
O=S(=O)(c1ccccc1)N1CCN(c2ccc3nnc(-c4ccc(F)cc4)n3n2)CC1 | 1 | -1.5
More results
SMILES | TAR Tat displ | CDC25B-CDK2 inh
COc1cccc(-c2[nH]nc3nc(-c4ccccc4OC)cc(C(=O)O)c23)c1 | -0.08 | -1.4
COc1ccccc1-n1nnc(-c2nc(-c3ccc4c(c3)OCO4)no2)c1C | 0.34 | .
Oc1ccc(-c2nc(-c3cccs3)c(-c3cccs3)[nH]2)cc1 | -0.61 | 19*
CCN(C1CCCCC1)S(=O)(=O)c1ccc(N2CCCCS2(=O)=O)cc1 | 0.85 | .
Nc1c(C(=O)Nc2ccccc2)sc2nc(-c3ccncc3)ccc12 | -13 | -2.1
CCN1C(=O)C(Cc2nc3ccccc3c(=O)[nH]2)c2ccccc21 (stereo not drawn) | 1.6 | 1.1
Cc1ccc(C(=O)CSc2nc3c(c(=O)[nH]2)CCCC3)cc1 | 1.6 | -0.88
CC(=O)NNC(=O)N1Cc2ccccc2Oc2ccc(Cl)cc21 | . | -1.4
CCn1c(=O)n(CC)c2cc(N3CCCCC3)c(NS(=O)(=O)c3ccc(Cl)cc3)cc21 | 0.24 | .
CC(C)(C)c1ccc(C(=O)Nc2nnc3n2CCS3)cc1 | 1.6 | .
O=c1cc(N2CCCCC2)nc2n1CCCS2 | 0.8 | -1.2
C1CCN(c2nn[nH]n2)CC1 | . | -1
CN1CCN(C(CNS(=O)(=O)c2ccc(F)cc2)c2ccc(N(C)C)cc2)CC1 (stereo not drawn) | 2.6 | .
O=C(C1CCCN(c2ncnc3c2nc2n3CCCCC2)C1)N1CCN(c2ccccc2F)CC1 (stereo not drawn) | -0.75 | .
Cc1cc(NC(=O)CCCn2cnc([N+](=O)[O-])n2)n(-c2ccccc2)n1 | -0.1 | 0.34
Brc1cccc(-c2nnc(CN3CCN(Cc4ccccc4)CC3)o2)c1 | 0.67 | -2.1
CSc1n[nH]c(C(C)(C)C)n1 | . | 0.26
COc1ccc(OCCSc2nc3ccccc3n2CC(=O)NC2CC2)cc1 | 1.1 | -1.6
O=C(Nc1ccc(Br)cc1F)c1cc(-c2cccnc2)nc2ccccc12 | 1.3 | .
COc1ccccc1-c1nc(-c2ccc(C)cc2)no1 | . | -0.05
N#CCC(=O)NCc1ccncc1 | . | -2.5
CCOC(=O)N1CCN(c2c(NCCCN3CCN(C4CCCCC4)CC3)c(=O)c2=O)CC1 | -1.2 | -1.8
O=C1CCCN1CC(CN1CCOCC1)Sc1nc2ccccc2c(=O)n1-c1ccccc1 (stereo not drawn) | . | -2.1
COc1ccc(NC(=O)CSc2c(Cl)c(Cl)cc(Cl)c2Cl)cc1 | . | -0.88
CN1C(=O)C2(c3ccccc31)C(C(=O)NCCc1ccc(Cl)cc1)CC1CCCN12 (stereo not drawn) | -1.3 | .
CCOC(=O)c1sc2ccccc2c1S(N)(=O)=O | 0.49 | .
CCC1CN(C(=O)Nc2ccccc2Br)c2ccccc2S1 (stereo not drawn) | 2 | .
O=S1(=O)C=C(SCCN2CCOCC2)c2ccccc21 | . | -0.06
COC(=O)C1=CC(=O)Nc2ccccc2N1 | 2.9 | -2.9
CC1=C(C(=O)OCc2ccccc2)C(c2ccccc2)n2nnnc2N1 (stereo not drawn) | . | -0.31
Cc1nn(CC(=O)NCc2ccco2)c(=O)c2cc3cc(F)ccc3n12 | -0.3 | 1.8
CC1=C(c2ccc(C(C)C)cc2)S(=O)(=O)NC1=NCc1ccccc1 | 0.06 | -3.3
Cc1ccc2oc(=O)n(CCNC(=O)Nc3ccc4c(c3)OCCO4)c2c1 | 1.5 | 0.63
Clc1ccc(-c2noc(-c3ccco3)n2)cc1 | 1.4 | -0.78
Cn1nc(NC(=O)CC(C)(C)CC(=O)O)c2ccccc21 | . | -1.1
COc1ccc(-n2c(=O)[nH]c(=O)c3sc(NC(=O)Nc4ccc(Cl)cc4)nc32)cc1 | -1.4 | -1.1
COc1cc2nc(-c3ccc(C)c(C)c3)oc(=O)c2cc1OC | -0.51 | -0.06
Fc1ccc(-c2nnc3sc(COc4ccccc4Cl)nn23)cc1 | 2.2 | 1.6
CC1=C(C(=O)Nc2cc(C)cc(C)c2)C2(CCC(C)CC2)OC1=O (stereo not drawn) | 1.7 | -2.6
CN(C)C=NC(=S)c1sccc1CSc1ccc(Cl)cc1 | . | -2.2
CC(C)c1ccc(C2CC(=O)Nc3c2cnn3-c2nc3ccccc3s2)cc1 (stereo not drawn) | 0.79 | .
CCc1ccn2cc(Nc3ccccc3Cl)nc2c1 | . | -1.1
CCn1c(C)c(C)c2cc(C(=O)NCc3ccc4c(c3)OCO4)ccc21 | -1.3 | .
COc1ccc(S(=O)(=O)n2nc(C)c(S(=O)(=O)N3CCCC3)c2C)cc1C | 0.7 | .
COc1ccc(-c2nc3c(c(=O)[nH]2)Cc2cccc(OC)c2O3)c(OC)c1 | 3.1 | -1.4
Cc1ccc2oc(=O)n(C(=O)c3ccco3)c2c1 | -0.1 | .
CCOC(=O)N1CCC(NC(=O)C2CCN(S(=O)(=O)N3CCC(C)CC3)CC2)CC1 | 1.4 | .
COc1cccc(/C=C2/N=C(c3cccs3)OC2=O)c1OC | . | -2.6
O=C(CSc1cn(CC(=O)N2CCCC2)c2ccccc12)NC1CCCC1 | -1.8 | .
COc1ccc(CNc2ccc3c(c2)ncn3C)cc1OC | 1.3 | 2.3
O=C(CCc1nnc2ccc(NCc3ccc(F)cc3)nn12)Nc1nccs1 | 1.6 | .
COc1ccc(OC)c(NS(=O)(=O)c2c(C)nc3sccn3c2=O)c1 | 1.1 | .
COc1cc(C2NC(C(=O)O)CS2)cc(OC)c1OC (stereo not drawn) | . | -1.6

16 structures from above, arranged by number of heavy atoms, falling.
SMILES | TAR Tat displ | CDC25B-CDK2 inh
COc1ccc(OC)c(C2Nc3ccccc3NC3=C2C(=O)CC(c2ccc(OC)c(OC)c2)C3)c1 (stereo not drawn) | -6.2 | -1.7
O=S(=O)(c1ccccc1)N1CCN(c2ccc3nnc(-c4ccc(F)cc4)n3n2)CC1 | 1 | -1.5
CCN1CCN(c2nnc(-n3cccc3CNc3cc(OC)ccc3OC)s2)CC1 | 5.7 | .
O=C(Nc1ccc(F)cc1F)C1CCCN1S(=O)(=O)c1cccc2cccnc12 (stereo not drawn) | 0.07 | -1
COc1ccccc1N1CCN(c2nc3ccccc3n3c(C)nnc23)CC1 | . | -1.6
O=C(Nc1nnc(S(=O)(=O)N2CCc3ccccc32)s1)c1ccccc1Cl | 0.82 | -0.87
CCN(C1CCCCC1)S(=O)(=O)c1ccc(N2CCCCS2(=O)=O)cc1 | 0.85 | .
Cc1cc2c3c([nH]c2cc1S(=O)(=O)Nc1cccnc1)CCCC3=O | 7.6* | .
CC1=C(C(=O)Nc2cc(C)cc(C)c2)C2(CCC(C)CC2)OC1=O (stereo not drawn) | 1.7 | -2.6
CSc1sc(NC(=O)Nc2cccc(C(F)(F)F)c2)cc1C#N | . | -2.8
COc1ccc(Cl)cc1C(=O)Nc1nnc2n1CCCS2 | 0.69 | .
O=S1(=O)C=C(SCCN2CCOCC2)c2ccccc21 | . | -0.06
O=C(CC1SC(=O)NC1=O)Nc1cc(Cl)ccc1O (stereo not drawn) | . | -2.2
Cc1nonc1NC(=O)N1CCOCC1 | 1.3 | -1.4
CNC(=S)NNC(=O)c1cccs1 | . | 2
C1CCN(c2nn[nH]n2)CC1 | . | -1

Source: PubChem
